Ecoli rRNA inh – reduced GFP signal of wild-type E. coli, primary screen, bacterial rRNA inhibitor project, GFP/RFP fluorescence, OD600, single point | 350,000 tested, 1.6% active | GFP signal change (wild-type ribosome), % (no concentration beside the values) | AID 720706, 2013 | E. coli WT GFP vs humanized-ribosome RFP mutants, 24 h; stronger effect = lower value; DMSO median 0, no signal -100;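 active = significant combined selectivity score with lowered wild-type GFP, culture density cut under 30%, mutant RFP and density less affected; inactive = any of these conditions unmet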; also: one replicate is shown; some compounds called inactive have numbers as strong as hits
Ecoli rRNA inh OD600 – recorded beside Ecoli rRNA inh, whose call it bears; OD600 change, %; measured here: OD600 growth;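 optical density of the mix in the first replicate; 0 = DMSO median and -100 = no signal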
Ecoli rRNA inh RFP – further read-out of Ecoli rRNA inh, marked with its call; RFP signal change, %; measured here: RFP humanized mutant strains;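 first replicate; 0 = DMSO median and -100 = no signal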
The depositor's hits bear a star; & = joins results of further samples; ! = repeats disagree. Some of the compounds tested; the hit share may differ from the screen's.

SMILES | Ecoli rRNA inh | Ecoli rRNA inh OD600 | Ecoli rRNA inh RFP
COc1cccc(NC(=O)C[C@H]2CC[C@H]3[C@@H](COc4ccc(NC(=O)C5CCOCC5)cc4C(=O)N3C)O2)c1 | -3.9 | -3.3 | -3.0
CCCCNC(=O)C1(C)CCC(=O)N1CCOC (stereo unspecified) | 4.7 | 5.6 | 10.3
O=C(C1CC1)N1CC2(C1)[C@H](c1ccccc1)[C@H](CO)N2S(=O)(=O)c1ccccc1 | -0.6 | 5.4 | -0.3
C[C@H]1CN([C@@H](C)CO)C(=O)c2cccc(NC(=O)c3ccc(-c4nccs4)cc3)c2O[C@@H]1CN(C)Cc1ccc(C(=O)Nc2ccccc2N)cc1 | -6.8 | -0.1 | -0.7
COc1cccc(NC(=O)C[C@@H]2CC[C@@H]3[C@H](COc4ccc(NC(C)=O)cc4C(=O)N3C)O2)c1 | 0.2 | 2.2 | -1.5
CN1C[C@H]2[C@@H](c3ccccc31)[C@H](CO)N2C(=O)Nc1cccc(F)c1 | -4.2 | -5.8 | -2.5
Cc1ccc(S(=O)(=O)N(C)C[C@@H]2OCCCC[C@H](C)Oc3ccc(NC(=O)c4ccncc4)cc3C(=O)N([C@H](C)CO)C[C@@H]2C)cc1 | -4.6 | -5.0 | 1.6
CN1c2ccc(-c3cccc(C#N)c3)cc2[C@@H]2[C@@H](CCN2C(=O)C2CC2)[C@H]1CO | 2.6 | 9.9 | 1.1
O=C(NCCN1CCCC1)[C@@H]1[C@@H](CO)[C@@H]2Cn3c(cccc3=O)[C@@H]2N1C(=O)c1ccccc1 | 2.7 | 1.4 | 0.8
C[C@@H]1CN([C@@H](C)CO)C(=O)c2cc(Br)cnc2O[C@H]1CN(C)C(=O)c1ccc(F)cc1 | -0.6 | 10.7 | -0.5
Cc1noc(C)c1NC(=O)N(C)C[C@H]1Oc2ccc(NC(=O)CCC(F)(F)F)cc2CC(=O)N([C@H](C)CO)C[C@H]1C | 0.9 | 7.0 | -0.1
CC(C)(O)C#Cc1cccc(-c2nc(C(=O)N3CCN(Cc4ccccc4)CC3)cc3c2[C@@H](CCO)N(S(=O)C(C)(C)C)C3)c1 (stereo partly specified) | -0.2 | 5.5 | 2.2
C[C@H]1CN([C@@H](C)CO)C(=O)c2cc(NS(=O)(=O)c3cn(C)cn3)ccc2O[C@H]1CN(C)Cc1ccc(-c2ccccc2)cc1 | -0.3 | -0.8 | 7.1
Clc1cccc(Cc2c(-c3cccc(Br)c3)nc3ccc(Br)cn23)c1 | -6.2 | -20.9 | -3.5
CC(=O)N1[C@H](C(=O)N[C@H](C)c2ccccc2)[C@@H](CO)[C@@H]2Cn3c(cccc3=O)[C@@H]21 | -2.9 | 3.1 | -4.6
CCN1C(=O)[C@@H]2[C@@H]3CN(S(=O)(=O)c4ccc(C)cc4)[C@@H](c4ccccc4F)[C@@H]3C(=O)C[C@@H]2C1=O | 7.8 | 1.6 | -2.5
Cc1cccc(CN(C)C[C@H]2OCc3cnnn3CCCC(=O)N([C@H](C)CO)C[C@@H]2C)c1 | 3.0&0.9 | 12.7&1.3 | 6.9&-0.2
CCC(=O)NC[C@H]1[C@@H](c2ccc(-c3cccc(F)c3)cc2)[C@@H](CO)N1C(=O)CC | -4.7 | -6.0 | -0.3
COC(=O)C[C@H]1CC[C@H]2[C@H](COc3ccc(NC(=O)NCc4ccccc4)cc3C(=O)N2C)O1 | 0.3 | -5.7 | -1.0
CO[C@@H]1CN(C)C(=O)c2cc(NC(=O)Nc3ccc(C(F)(F)F)cc3)ccc2OC[C@@H](C)NC[C@@H]1C | -19.8 | -32.4 | 12.5
CNC(=O)C[C@@H]1CC[C@H]2[C@@H](COC[C@H](O)CN2C(=O)c2ccccn2)O1 | 1.1 | 8.7 | -1.7
COCC#Cc1cnc2c(c1)C(=O)N([C@H](C)CO)C[C@H](C)[C@H](CN(C)C(=O)c1cccnc1)O2 | 4.6 | -3.8 | -1.9
C/C=C/c1ccc2c(c1)O[C@@H](CN(C)C(=O)NC1CCCCC1)[C@H](C)CN([C@H](C)CO)S2(=O)=O | -6.2 | -19.9 | -3.4
C[C@@H]1CN([C@H](C)CO)C(=O)c2cc(NC(=O)Nc3ccc4c(c3)OCO4)ccc2O[C@H]1CN(C)S(=O)(=O)c1cn(C)cn1 | 2.9 | 7.1 | -0.6
C[C@H](CO)N1C[C@H](C)[C@@H](CN(C)C(=O)Nc2cccc3ccccc23)Oc2ccc(NC(=O)Cc3ccccc3)cc2C1=O | -0.5 | 0.0 | -2.3
CCCNC(=O)C1(C)CCN(Cc2ccc(Oc3ccccc3)cc2)C1 (stereo unspecified) | 2.4 | -3.1 | 4.0
Cc1cc(C)c(Cn2c(=O)[nH][nH]c2=O)cc1Cn1c(=O)[nH][nH]c1=O | 14.7 | 10.4 | 0.6
CCCC(=O)Nc1ccc2c(c1)C(=O)N(C)C[C@H](OC)[C@@H](C)CN(C(=O)c1cnccn1)[C@H](C)CO2 | 1.0 | -2.1 | -1.3
C[C@@H]1CN([C@@H](C)CO)C(=O)c2cc(-c3ccc(C#N)cc3)cnc2O[C@H]1CN(C)Cc1cncnc1 | -0.3 | -6.0 | 1.6
Cc1ccc(S(=O)(=O)N2CCOCC2)cc1NC(=O)COC(=O)C1CCC1 | 13.5 | 8.7 | -0.8
CCCNC(=O)N[C@@H]1CC[C@@H](CC(=O)NC2CCC2)O[C@@H]1CO | 4.4 | 4.3 | -1.8
O=C(C[C@H]1CC[C@@H]2[C@H](COC[C@@H](O)CN2Cc2ccc(Cl)cc2)O1)NCCc1ccccc1 | -21.2*! | -16.1*! | 6.1*!
CC=Cc1ccc2n(c1=O)C[C@@H]1[C@@H](CO)[C@H](C(=O)NC3CCC3)N(S(C)(=O)=O)[C@H]21 (mixture of isomers) | 1.7 | -0.6 | -4.0
C[C@@H]1CN([C@@H](C)CO)C(=O)Cc2cc(NC(=O)Cn3cnnn3)ccc2O[C@H]1CN(C)CC1CC1 | 2.8 | 3.3 | 0.2
C[C@@H]1CN([C@H](C)CO)C(=O)c2cc(NS(=O)(=O)c3cccs3)ccc2O[C@@H]1CN(C)CC1CCCCC1 | 2.9 | -0.2 | 0.0
COc1ccc(C#Cc2ccc3c(c2)[C@@H]2[C@@H](CCN2C(C)=O)[C@H](CO)N3C)cc1 | 0.9 | 12.1 | -1.2
C[C@@H]1CCCCO[C@@H](CN(C)C(=O)CCCN(C)C)[C@H](C)CN([C@H](C)CO)C(=O)c2cc(N(C)C)ccc2O1 | -3.2 | -0.5 | -1.8
COc1ccccc1-c1cccc2[nH]c3c(c12)CCN1C(=O)[C@H]2[C@H](C)ON(C)[C@H]2C[C@@H]31 | -5.9 | -3.0 | 5.8
O=C(NCCc1ccccc1)Nc1nnc([C@@H]2C[C@H](O)[C@@H](CO)O2)s1 | 4.8 | 15.9 | -5.3
C[C@@H]1CN([C@@H](C)CO)C(=O)c2cc(C#CC3CCCC3)cnc2O[C@@H]1CN(C)Cc1ccncc1 | 0.7 | -4.6 | 0.1
C[C@@H]1CN([C@H](C)CO)C(=O)c2cccc(NS(=O)(=O)c3cn(C)cn3)c2O[C@H]1CN(C)S(=O)(=O)c1ccccc1 | 4.5 | 8.7 | -0.9
CCCNC(=O)N1C[C@@H](C)[C@@H](OC)CN(C)C(=O)c2cc(NC(=O)C3CCC3)ccc2OC[C@@H]1C | 1.7 | 5.5 | -2.3
O=C(C[C@@H]1C[C@H]2c3cc(NS(=O)(=O)c4ccc(F)cc4)ccc3O[C@H]2[C@H](CO)O1)NCc1cccnc1 | -0.6 | -9.3 | 0.5
CC(C)NC(=O)N(C)C[C@@H]1Oc2ccc(NC(=O)Nc3ccc(C(F)(F)F)cc3)cc2CC(=O)N([C@H](C)CO)C[C@H]1C | 3.6 | 4.3 | 1.4
CN1C(=O)c2cc(NS(=O)(=O)c3ccccc3F)ccc2OC[C@@H]2O[C@@H](CC(=O)NC3Cc4ccccc4C3)CC[C@@H]21 | -4.6 | -1.8 | -0.7
Cc1ccc(-c2ccc([C@@H]3[C@H](CO)N4CCCCN(C(=O)c5ccc(F)cc5)C[C@@H]34)cc2)cc1 | -50.4 | -74.3 | -11.0
COc1ccccc1NC(=O)N1C[C@H](O)COC[C@H]2O[C@@H](CC(=O)NCCc3ccccc3)CC[C@@H]21 | 1.1 | -4.8 | -4.8
CNC[C@H]1Oc2ccc(NC(=O)c3ccncc3)cc2CC(=O)N([C@H](C)CO)C[C@H]1C | 1.6 | 6.0 | -0.7
CC(NC(=O)C1CCN(CCOc2ccc(Cl)cc2)CC1)c1cccc2ccccc12 (stereo unspecified) | -51.6 | -82.2 | -18.1
C[C@@H]1CN([C@@H](C)CO)C(=O)c2cc(NC(=O)CCN3CCOCC3)ccc2O[C@@H]1CN(C)CC1CCCCC1 | 3.0 | 5.6 | -1.7
COc1ccccc1CNC(=O)C[C@H]1C[C@@H]2c3cc(NC(=O)Nc4ccccc4F)ccc3O[C@@H]2[C@H](CO)O1 | -3.2 | -13.6 | 2.7
COC(=O)N1C[C@H](OC(=S)Nc2ccc(OC)cc2OC)[C@H]2C[C@@H]1c1ccccc1O2 | -1.0 | 16.2 | 3.3
C[C@@H]1CN([C@@H](C)CO)C(=O)Cc2cc(NS(=O)(=O)c3cccs3)ccc2O[C@H]1CN(C)Cc1ccc(-c2ccccc2)cc1 | -5.2 | -7.3 | 5.4
COc1ccccc1-c1ccc2c(c1)O[C@H](CN(C)C)[C@@H](C)CN([C@H](C)CO)S2(=O)=O | -0.6 | -10.3 | -3.0
C[C@@H]1CN([C@H](C)CO)S(=O)(=O)c2ccc(C#Cc3ccccc3F)cc2O[C@H]1CN(C)C | 6.5 | -29.8 | 19.6
C[C@H](CO)N1C[C@H](C)[C@H](CN(C)C(=O)Nc2ccc(F)cc2)Oc2ccc(NC(=O)Nc3ccc4c(c3)OCO4)cc2CC1=O | -0.2 | 11.4 | 0.3
C[C@@H]1CN([C@H](C)CO)C(=O)c2cc(C#CCN(C)C)cnc2O[C@@H]1CN(C)C(=O)Nc1cccc(F)c1 | 5.2 | 5.4 | -1.9
COCC(=O)Nc1ccc2c(c1)[C@H]1C[C@H](CC(=O)N(C)C)O[C@@H](CO)[C@H]1O2 | -0.6 | -0.5 | -5.3
CCCN1[C@H](C(=O)N(C)C)[C@@H](CO)[C@@H]2Cn3c(ccc(-c4ccccc4OC)c3=O)[C@@H]21 | 0.0 | 7.7 | -4.3
COC(=O)[C@]12C[C@H](CC(=O)N3CCC(c4ccccc4)CC3)C(=O)N(Cc3ccccc3)C1=C[C@H](C(C)C)O[C@@H]2C1CC1 | 20.1 | 9.2 | -0.5

Other results follow:
SMILES | Ecoli rRNA inh | Ecoli rRNA inh OD600 | Ecoli rRNA inh RFP
CC(C)NC(=O)N[C@H]1CC[C@@H](CC(=O)NCCN2CCCC2)O[C@@H]1CO | 3.8 | 2.4 | -1.1
CO[C@H]1CN(C)C(=O)c2cc(NC(C)=O)ccc2OC[C@@H](C)N(C(=O)c2ccccc2)C[C@@H]1C | 0.7 | 3.4 | -2.9
COc1ccccc1NC(=O)N(C)C[C@H]1OCc2ccccc2-c2c(n(C)c3ccccc23)C(=O)N([C@@H](C)CO)C[C@@H]1C | -4.0 | -4.6 | 2.6
CCCNC(=O)N1CC(=O)N2[C@@H](CO)[C@@H](c3ccc(C#Cc4cccc(F)c4)cc3)[C@@H]2C1 | 0.1 | -1.0 | 1.9
CN(C)Cc1cn(CC[C@H]2CC[C@H](NC(=O)Nc3ccc4c(c3)OCO4)[C@H](CO)O2)nn1 | -0.6 | -0.9 | 0.4
N#C[C@@H]1[C@H](c2ccccc2)[C@H](CO)N1C(=O)c1ccccc1F | 2.0 | -0.5 | -0.3
CN1C(=O)c2cc(NC(=O)C3CCCC3)ccc2OC[C@H]2O[C@H](CC(=O)NCC3CC3)CC[C@@H]21 | -0.3 | 9.2 | -1.2
C[C@H]1CN([C@@H](C)CO)C(=O)c2cccc(NC(=O)Nc3ccc(F)cc3)c2O[C@H]1CN(C)C(=O)Nc1ccc(F)cc1 | -11.8 | -17.0 | 2.1

Already shown: entries from further up.
SMILES | Ecoli rRNA inh | Ecoli rRNA inh OD600 | Ecoli rRNA inh RFP
CCCN1[C@H](C(=O)N(C)C)[C@@H](CO)[C@@H]2Cn3c(ccc(-c4ccccc4OC)c3=O)[C@@H]21 | 0.0 | 7.7 | -4.3
COC(=O)[C@]12C[C@H](CC(=O)N3CCC(c4ccccc4)CC3)C(=O)N(Cc3ccccc3)C1=C[C@H](C(C)C)O[C@@H]2C1CC1 | 20.1 | 9.2 | -0.5
CC(C)NC(=O)N[C@H]1CC[C@@H](CC(=O)NCCN2CCCC2)O[C@@H]1CO | 3.8 | 2.4 | -1.1
CO[C@H]1CN(C)C(=O)c2cc(NC(C)=O)ccc2OC[C@@H](C)N(C(=O)c2ccccc2)C[C@@H]1C | 0.7 | 3.4 | -2.9
COc1ccccc1NC(=O)N(C)C[C@H]1OCc2ccccc2-c2c(n(C)c3ccccc23)C(=O)N([C@@H](C)CO)C[C@@H]1C | -4.0 | -4.6 | 2.6
CCCNC(=O)N1CC(=O)N2[C@@H](CO)[C@@H](c3ccc(C#Cc4cccc(F)c4)cc3)[C@@H]2C1 | 0.1 | -1.0 | 1.9
CN(C)Cc1cn(CC[C@H]2CC[C@H](NC(=O)Nc3ccc4c(c3)OCO4)[C@H](CO)O2)nn1 | -0.6 | -0.9 | 0.4
N#C[C@@H]1[C@H](c2ccccc2)[C@H](CO)N1C(=O)c1ccccc1F | 2.0 | -0.5 | -0.3
CN1C(=O)c2cc(NC(=O)C3CCCC3)ccc2OC[C@H]2O[C@H](CC(=O)NCC3CC3)CC[C@@H]21 | -0.3 | 9.2 | -1.2
C[C@H]1CN([C@@H](C)CO)C(=O)c2cccc(NC(=O)Nc3ccc(F)cc3)c2O[C@H]1CN(C)C(=O)Nc1ccc(F)cc1 | -11.8 | -17.0 | 2.1

From PubChem
